Compound activity: PubChem BioAssay, several laboratories
PABP polyA inh: PABP-poly(A) binding inhibition; PABP-poly(A) RNA binding, fluorescence polarization; inhibition, % at 35 µM; hit rate 1% among 290,000;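 active = 50% or more with normal probe brightness, or confirmed in later tests; about a fifth of its hits are not listed in these tables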;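 note: calls also rest on retests at 20 µM and on dose response follow-up; controls were probe without protein and protein plus probe with vehicle; some compounds called inactive have numbers as strong as hits; many hits fall short of the cut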
Target sequence (P11940 whole entry, looked up): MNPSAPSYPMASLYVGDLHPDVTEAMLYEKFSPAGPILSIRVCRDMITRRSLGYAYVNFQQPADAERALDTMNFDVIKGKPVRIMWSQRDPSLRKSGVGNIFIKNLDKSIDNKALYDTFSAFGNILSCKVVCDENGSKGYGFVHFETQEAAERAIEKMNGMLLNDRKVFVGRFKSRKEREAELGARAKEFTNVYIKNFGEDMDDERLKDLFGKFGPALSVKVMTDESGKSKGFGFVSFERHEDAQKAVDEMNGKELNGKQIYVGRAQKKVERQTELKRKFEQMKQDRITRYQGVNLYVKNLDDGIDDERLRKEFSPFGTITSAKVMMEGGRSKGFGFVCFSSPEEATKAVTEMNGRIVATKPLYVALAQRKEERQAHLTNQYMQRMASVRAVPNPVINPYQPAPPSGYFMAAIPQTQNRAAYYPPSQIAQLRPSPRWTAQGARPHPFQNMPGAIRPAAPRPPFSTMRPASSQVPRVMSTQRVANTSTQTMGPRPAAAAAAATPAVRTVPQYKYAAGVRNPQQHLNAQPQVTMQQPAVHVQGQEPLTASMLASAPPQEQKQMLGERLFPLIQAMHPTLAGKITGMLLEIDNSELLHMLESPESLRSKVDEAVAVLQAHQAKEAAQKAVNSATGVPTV
Yeast UUG start: alters start codon recognition fidelity in yeast; AID 602363; S. cerevisiae UUG-firefly luciferase reporter, luminescence/redox ratio; hit rate 0.13% among 350,000; activity score, % at 18.7 µM;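 active = replicate mean at a twofold rise or more, about +100% in these data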;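 note: firefly luciferase made from a UUG start codon reports start codon fidelity; reporter light over untreated wells divided by growth signal over untreated wells; some hits fall short of that in this replicate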
Rce1 inh: blocks yeast Ras-converting enzyme; calls only; Q03530; AID 2563; yeast membranes, quenched prenylated peptide cleavage fluorescence; hit rate 0.27% among 290,000;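 active = fall in fluorescence gain of 50% or more versus controls, with final raw signal at or below 3038400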;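 note: plate controls were neutral control wells for no effect and wells lacking membranes for full effect; tested at 10 µM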
HIV Env fusion: HIV envelope-mediated fusion inhibition | HeLa-JRFL Env/CEM21 cell fusion, luciferase | inhibition, % at 12.3 µM | hit rate 1.1% among 360,000;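 active = mean replicate inhibition score of at least 50 and every replicate individually at or above 50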;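 note: 0% = plate neutral controls and 100% = maraviroc near 300 nM; one replicate is shown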
eIF4H inh: inhibitors of RNA binding by human eIF4H; Q15056; eIF4H fluorescence polarization binding assay; inhibition, % at 35 µM; hit rate 0.94% among 290,000; AID 2012;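 active = 50% or more with normal probe brightness, or confirmed in later tests; about a fifth of its hits are not listed in these tables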;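 note: calls also rest on retests at 20 µM and on dose response follow-up; 0% = protein and probe with vehicle and 100% = probe without protein; strong numbers were not always called active; many hits fall short of the cut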
CSC inhib: blocks cancer stem cells | cancer stem cell-like cells viability, luminescence | inhibition, % at 7.5 µM | hit rate 1.1% among 300,000 | AID 2717;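 active = mean at 75% or more and at least half the replicates too; tested in HMLE shEcad cells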;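 note: 0% = median of negative and 100% = median of positive control wells; the first replicate is given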
MT1-MMP act inh: MT1-MMP (human) activation inhibition. P50281. HT1080 RFP-PRO-GFP cells, GFP/RFP ratio fluorescence, overnight; percent of plate control window, DMSO zero. GFP/RFP ratio change, % at 20 µM. hit rate 0.061% among 360,000;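 active = GFP/RFP ratio change of at least 30% with cell ATP level not reduced by more than half and red fluorescence within 50% of control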; note: strong numbers were not always called active
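Material: RFP-PRO-GFP reporter HT1080 cells. Dosing: single-point 20 µM compound, 1% DMSO. Controls: DMSO and RFP-L50D-GFP cell wells. Timing: cells overnight before dosing, compound overnight, 37 °C, 5% CO2. Measure: GFP/RFP fluorescence ratio.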
eIF4H inh retest: also measured in eIF4H inh; calls as there; inhibition, %; compound at 20 µM; confirmation average;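 mean of two retest wells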
PABP polyA inh retest: also measured in PABP polyA inh; calls as there; inhibition, %; compound at 20 µM; confirmation repeats;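 mean of two retest wells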
MT1-MMP act inh RFP: also measured in MT1-MMP act inh; calls as there; RFP signal change, %; measured here: RFP expression control read;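 0 = vehicle wells; hits needed this value within 50% of zero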
Numbers without * were called inactive; i = inactive; nt = no result given; & = joins results of further samples.

SMILES	PABP polyA inh	Yeast UUG start	Rce1 inh	HIV Env fusion	eIF4H inh	CSC inhib	MT1-MMP act inh	MT1-MMP act inh RFP	others
CN(Cc1ccccc1)C(=O)c1ccc(NC(=O)Cc2cccc([N+](=O)[O-])c2)cc1	nt	-1	nt	3	nt	23	2	-4
COc1ccc(CCN2CC(C(=O)NCc3ccco3)CC2=O)cc1OC (stereo unspecified)	10	-16	i	-25	4	-5	1	-1
Cc1nc(Nc2ccc(S(=O)(=O)N3CCCC3)cc2)c2nnn(Cc3ccccc3)c2n1	-1	nt	i	11	-9	1	-5	-18
Cc1cccc(Nc2nc(N)c([N+](=O)[O-])c(N3CCCC(C)C3)n2)c1 (stereo unspecified)	-6	nt	i	12	-1	45	-4	-18
Cc1cc(NC(=O)c2cccc(COc3ccc(Br)cc3)c2)no1	-18	-15	i	7	-14	20	0	-3
Cc1ccc(S(=O)(=O)N=S(CCO)CCO)cc1	3	nt	i	nt	-6	-9	6	3
CCCCCCCN1C(Nc2ccccc2)=NC[C@@H]1CC(C)C	5	43	i	-2	-9	16	3	1
CC(=O)c1cccc(CN2CCC(C(=O)Nc3cccc(-c4ccn[nH]4)c3)CC2)c1	-7	21	i	16	-2	0	12	-2
O=C(CN1C(=O)CC(c2ccccc2)Sc2ccccc21)NCC1CCCO1 (stereo unspecified)	10	-10	i	4	2	-11	0	2
O=C1NC2(CCCC2)Oc2ccccc21	0	-27	i	4	10	2	2	4
COc1ccc(NC(=O)COc2ccccc2Cc2ccccc2)cc1S(N)(=O)=O	-2	-1	i	-2	3	-3	-4	-27
CCN1CCN(CC(O)COCCOc2ccc(Br)cc2)CC1 (stereo unspecified)	16	nt	i	3	-8	24	-1	1
N#CCCn1cc(/C=N/O)c(-c2ccccc2)n1	8	-15	nt	nt	1	-5	9	5
O=C(c1cccnc1)C1CCCN(Cc2nc(Cc3ccccc3)no2)C1 (stereo unspecified)	-1	nt	i	-3	-6	-5	-1	2
CCCCN(C(=O)Nc1ccc(OCC)cc1)C1CCN(C(C)=O)CC1	-4	-12	nt	-17	-8	nt	3	3
O=C(CN(c1ccccc1)S(=O)(=O)c1ccccc1)Nc1ccc(F)cc1	0	-29	i	11	-1	-3	-3	-1
Cc1ccccc1-c1cc2c(c3c1ccn3C)C1CCC2O1 (stereo unspecified)	nt	-6	nt	43	nt	nt	0	0
Cc1ccc(S(=O)(=O)/C(C#N)=C/c2c(N3CC(C)OC(C)C3)nc3ccccn3c2=O)cc1 (stereo unspecified)	1	-7	i	-14	2	-15	2	2
COc1ccc2oc3ccccc3c(=O)c2c1	0	-20	i	-81	-5	4	-1	0
O=S(=O)(Nc1ncccn1)c1ccc(NC(=S)NCc2cccnc2)cc1	6	nt	i	0	8	-6	3	7
CCC(=O)OCC(=O)Nc1cc(C)c(C)cc1[N+](=O)[O-]	3	2	i	-2	-9	-14	2	2
COc1ccc(-c2cc3cc(F)ccc3cn2)cc1	nt	-20	nt	-157	nt	-11	-3	4
CCOC(=O)N1CCN(S(=O)(=O)N2CCCC(C(=O)NCc3cccc(OC)c3)C2)CC1 (stereo unspecified)	6	-5	i	-5	-7	-8	-2	-5
CCc1cc(-c2nnn(CCC3COCCO3)c2C(C)(C)O)ccc1-c1cn(CCc2c[nH]c3ccccc23)nn1 (stereo unspecified)	nt	-1	nt	-3	nt	nt	3	-11
Cc1ccc(-c2nnn(CC(=O)N(c3cnc4ccccc4c3)C(C(=O)NC3CCCC3)c3ccncc3)n2)o1 (stereo unspecified)	4	nt	i	-21	-20	-6	2	-3
CC(C)CC(Nc1ncnc2scc(-c3ccccc3)c12)C(=O)O (stereo unspecified)	-2	-15	i	-1	-3	-1	-3	0
COc1ccc2c(c1OC)C(=O)N1C2SC[C@H]1C(=O)NC1CC(C)(C)NC(C)(C)C1 (stereo partly specified)	0	1&1	i	nt	5	nt	0	2
O=C(c1ccccc1)N1CCN(c2ccc(N3CCOCC3)nn2)CC1	nt	-18	i	-2	nt	-9	3	-3
COCCn1c(SC(C)C(=O)Nc2ccc(N3CCOCC3)cc2)nnc1-c1ccncc1 (stereo unspecified)	nt	nt	i	3	nt	-9	2	2
CCn1ncc(Br)c1C(=O)Nc1ccccc1C(F)(F)F	-7	2	i	-4	5	-1	7	4
COc1ccc(Cl)cc1-n1c(N)c(C(N)=O)sc1=S	4	2	i	nt	72	-10	6	1	eIF4H inh retest=-7;PABP polyA inh retest=0
CCOCC(=O)Nc1nnc(C2CCCCC2)s1	-2	-15	i	-50	14	-20	-15	-2
Cc1ccc(C(=O)N2CCN(c3ccccn3)CC2)cc1	-3	0	i	-10	8	0	4	-1
O=C(COc1ncnc2ccccc12)NCCc1ccccc1	4	nt	i	5	0	nt	5	3
COCCCNC(=O)c1cc(C(=O)c2ccccc2Br)c[nH]1	-4	nt	i	20	2	-17	-2	-3
COC(=O)C1=C(NC(=O)c2cccc(OC)c2)CCS1	0	-26	i	nt	-3	8	-4	-1

Pulled one by one from the entries so far, 5 records:
SMILES	PABP polyA inh	Yeast UUG start	Rce1 inh	HIV Env fusion	eIF4H inh	CSC inhib	MT1-MMP act inh	MT1-MMP act inh RFP	others
COc1ccc(Cl)cc1-n1c(N)c(C(N)=O)sc1=S	4	2	i	nt	72	-10	6	1	eIF4H inh retest=-7;PABP polyA inh retest=0
CCn1ncc(Br)c1C(=O)Nc1ccccc1C(F)(F)F	-7	2	i	-4	5	-1	7	4
Cc1ccc(-c2nnn(CC(=O)N(c3cnc4ccccc4c3)C(C(=O)NC3CCCC3)c3ccncc3)n2)o1 (stereo unspecified)	4	nt	i	-21	-20	-6	2	-3
COC(=O)C1=C(NC(=O)c2cccc(OC)c2)CCS1	0	-26	i	nt	-3	8	-4	-1
O=C(COc1ncnc2ccccc12)NCCc1ccccc1	4	nt	i	5	0	nt	5	3

An excerpt taken from the entries so far, for reference:
SMILES	PABP polyA inh	Yeast UUG start	Rce1 inh	HIV Env fusion	eIF4H inh	CSC inhib	MT1-MMP act inh	MT1-MMP act inh RFP	others
COCCCNC(=O)c1cc(C(=O)c2ccccc2Br)c[nH]1	-4	nt	i	20	2	-17	-2	-3
COC(=O)C1=C(NC(=O)c2cccc(OC)c2)CCS1	0	-26	i	nt	-3	8	-4	-1

Other compounds:
SMILES	PABP polyA inh	Yeast UUG start	Rce1 inh	HIV Env fusion	eIF4H inh	CSC inhib	MT1-MMP act inh	MT1-MMP act inh RFP	others
COc1cc(Cl)ccc1OCc1cc(C(=O)N2CCN(c3ccccn3)CC2)no1	8	-20	i	6	-4	1	0	0
Brc1ccc(-c2nc(-c3ccccn3)no2)o1	14	-75	i	nt	0	12	0	-1
COc1ccc2cc(C(=O)C3CCCN(C(=O)C4=NN(C)C(=O)CC4)C3)ccc2c1 (stereo unspecified)	-1	-17	i	-10	-6	0	0	4
O=C(Oc1ccc2c(c1)OCO2)C12CC3CC(CC(C3)C1)C2	-1	nt	i	-1	-5	-4	-6	2
COc1ccc(CCNC(=O)COc2nncc3ccccc23)cc1	-8	-10	i	4	-1	-16	4	2
COc1ccccc1NC(=O)CSCC(=O)N1c2ccccc2CCc2ccccc21	1	nt	nt	12	-1	-6	1	5
COc1ccc(-c2nc3n(c(=O)c2C#N)CCS3)c(OC)c1	-1	-11	i	2	5	-4	3	4
CC(=O)Nc1ccc(NC(=O)CSc2nnc(-c3ccco3)o2)cc1	-16	-5	i	-12	-9	-2	-1	3
COc1cc2c(cc1OC)CN(CCC(=O)c1ccc(Br)cc1)CC2	1	nt	i	-1	-1	5	2	3
Cc1ccc(CN2CCN(CC(=O)NCCCN3CCN(c4ccc(F)cc4)CC3)C2=O)cc1	6	8	nt	36	-8	nt	-2	-12
CC1(C)CC(=O)C=C(CN2C(=O)c3ccccc3C2=O)C1=O	nt	-6	nt	-1	nt	-8	3	5
CC1(C)N=C(N)NC(Nc2ccc(Br)cc2)=N1	-16	-2	i	-22	-12	8	-3	1
O=C(COC(=O)Cc1ccccc1[N+](=O)[O-])NCc1ccccc1Cl	2	nt	i	-6	4	-4	0	3
COC(=O)/C=C/C(=O)NCc1ccco1	-1	-14	i	nt	0	-7	-3	-1
CC(=O)N1CCN(C(=S)c2ccc([N+](=O)[O-])cc2)CC1	2	-2	i	-52	-4	-3	-1	2
NNC(=O)C1CC(O)CN1S(=O)(=O)c1ccc(Cl)cc1 (stereo unspecified)	-2	-17	i	11	-1	nt	0	8
CCCC(C(=O)NCCC(C)C)N(Cc1ccc(OC)cc1)C(=O)c1snc(C(N)=O)c1N (stereo unspecified)	8	-4	i	-70	12	-3	-2	-4
CC(=O)n1cc([C@H]2C=C(C(=O)NCc3ccccc3)O[C@@H](OCc3ccc(CO)cc3)C2)c2ccccc21	0	-14	i	13	-5	19	-6	-6
CC1(C)CC(=O)C(CCC(=O)c2ccccc2)C(C)(C)N1 (stereo unspecified)	7	-3	i	-76	-10	-3	1	3
CCN(CC(=O)Nc1ccc(S(N)(=O)=O)cc1)S(=O)(=O)c1cc(C)ccc1OC	5	49	i	nt	4	13	3	1
Cc1cc(C(=O)COC(=O)CC2Sc3ccccc3NC2=O)c(C)n1-c1ccc(Br)cc1 (stereo unspecified)	6	nt	i	-7	0	-22	-4	-1
CC1CC(=O)C2=C(C1)Nc1ccccc1N=C2 (stereo unspecified)	-5	-25	i	-54	0	-10	0	-5
COc1ccc(NS(=O)(=O)c2cccc(C(=O)N/N=C(\C)c3ccncc3)c2)cc1	0	nt	i	nt	-6	-7	5	11
Cc1ccc(C(=O)NCc2ccco2)cc1[N+](=O)[O-]	-1	-7	i	23	7	8	2	8
C[N+]1(CC(=O)OCCCC2CCCCC2)CCCC1	55*	nt	i	-20	-9	1	-4	-6
CCOC(=O)Cc1nnc2c(Nc3ccccc3F)nc3nonc3n12	-4	-9	i	nt	-3	34	-7	-21
O=C1C=CC(O)C2(CO)OC12 (stereo unspecified)	nt	-7	nt	-22	nt	nt	-6	-21
Cc1ccc(N2CCN(C(=S)Nc3ccccc3C)CC2)cc1	2	-14	i	1	4	-13	2	3
COCCCNCCOCCOc1ccc(C)cc1[N+](=O)[O-]	-1	-7	i	17	-6	-15	6	13
